# Compound activity deposited in PubChem by National Center for Advancing Translational Sciences (NCATS).
# ClpP mod = qHTS Assay for Activators of ClpP; 340,000 compounds, 1.9% hits; purified B. subtilis ClpP, FRET peptide cleavage, 20 min; Potency, µM (highest dose often 57.5 µM), for the others: top-dose activity change, negative = active; AID 651965, 2013; active = well fitted falling curve with a large enough effect; inconclusive = small, poorly fitted or top-dose-only effect; inactive = no such curve, though single readings can be large or run the other way; note: the source files actives as falling curves though it sought activators and does not explain the sign; nearly all actives have a fitted effect of over 65% in size; many hits overshoot -100%
# Target sequence (P80244 whole entry, looked up): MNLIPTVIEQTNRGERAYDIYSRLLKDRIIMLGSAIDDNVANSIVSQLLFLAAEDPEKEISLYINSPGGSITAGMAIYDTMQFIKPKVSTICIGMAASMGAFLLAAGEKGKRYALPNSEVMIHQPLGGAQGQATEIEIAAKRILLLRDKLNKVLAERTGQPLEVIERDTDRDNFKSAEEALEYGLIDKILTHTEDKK
#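 Buffer: 100 mM Tris/HCl pH8, 100 mM KCl, 0.05% low protease BSA, 2.5% glycerol, 0.01% Tween-20. ClpP 10 microg/mL final; 20 min RT; delta FRET normalized to ADEP and DMSO controls.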
# PINK1 modulator = changes PINK1 expression; PINK1 immunofluorescence, high-content cytometry, 24 h; 410,000 compounds, 0.2% hits; Potency, µM (top dose mostly 76.6 µM), inactives show at the highest dose activation (PINK1 increase), usual class: activators; active = well fitted activation curve with a large enough effect; inconclusive = small, poorly fitted or top-dose-only effect; inactive = flat fitted curve, though single readings scatter; cell line not stated here;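 note: % of control where 0% means no effect; nearly all actives have a fitted effect of over 65% in size; a mitochondrial uncoupler was the plate control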
#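 PINK1 protein, normally rapidly degraded, was detected by immunofluorescence after 24 hour compound treatment of a stable cell line. Titration data (5 concentrations) came from laser-scanning cytometry, with CCCP-treated wells as controls.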
# The depositor's hits bear a star; u = inconclusive. Potency is the fitted concentration of half-maximal effect. These rows are one share of the data; count on the stated rates, not on these rows.
Molecule	ClpP mod	PINK1 modulator
O=C(COc1ccc(Cl)cc1)Nc1nnc2n1CCS2	3.0%	-2.4%
O=C(CC1N=C2c3ccccc3N=C(SCc3ccccc3Cl)N2C1=O)NCCc1ccccc1 (stereo not given)	-23%	0.8%
COc1ccc(C2C(C(=O)Nc3ccccc3)=C(C)Nc3nc(-c4ccccc4Cl)nn32)cc1OC (stereo not given)	0.3%	4.1%
Cc1ccc(C)c(CN2C(=O)CSc3ccc(C(=O)NCc4ccc(F)cc4)cc32)c1	2.5%	11%
CCCOc1cccc(C(=O)Nc2ccc(-c3nc4ccccc4s3)c(Cl)c2)c1	4.5%	2.3%
COC(=O)c1cc2sc(C)cc2n1Cc1ccc(F)cc1Cl	u	1.9%
Cc1cc(NS(=O)(=O)c2ccc3nc(-c4ccccc4)[nH]c3c2)ccc1Br	-2.0%	5.8%
CCc1cccc(C)c1Nc1c(-c2ccsc2)nc2ncccn12	-2.0%	-1.8%
CCOC(=O)c1ccc(NC(=O)c2csc3c2CCCC3)cc1	-5.5%	3.8%
CCC1CN(C(=O)N2CCC(C(=O)NCCc3ccccc3Cl)CC2)c2cc(C)ccc2O1 (stereo not given)	2.6%	-0.9%
CCCSc1nc2sc3c(c2c(=O)n1Cc1ccccc1)CC(C)(CC)OC3 (stereo not given)	-2.3%	0.7%
O=C(NCc1ccc(F)cc1)c1ccc2c(c1)nc1n2CCCCC1	-2.1%	0.5%
CN(C)c1ccc(/C=C2\CCc3cc(N)ccc32)cc1	-23%	-1.0%
CCS(=O)(=O)CCSc1nc(-c2ccc(Br)cc2)cc(-c2ccccc2)c1C#N	-0.7%	0.1%
CC(C)Sc1ncc(Cl)c(C(=O)Nc2ccc(S(=O)(=O)Nc3ncccn3)cc2)n1	-2.6%	0.3%
COc1cc(NC(=O)Cn2c(=O)n(CC3CCC(C(=O)NCCc4ccccc4)CC3)c(=O)c3ccccc32)cc(OC)c1 (stereo not given)	u	1.1%
CCOC(=O)c1cc(-c2ccc(F)cc2)n(CCC(=O)Nc2ccccc2OC)c1C	-4.3%	-1.1%
CC(C(=O)NCc1ccc(Cl)cc1)n1ccc2cc(S(=O)(=O)N3CCCCCC3)ccc21 (stereo not given)	-7.0%	-0.5%
CCOc1ccc(C(=O)Nc2cc(NC(=O)c3ccco3)ccc2OC)cc1Br	3.8%	1.3%
COc1ccccc1NC(=O)Cn1c(=O)n(CCc2ccccc2)c(=O)c2sc3ccccc3c21	-19%	2.3%
CCC(Sc1nc2ccccc2c2nc(CCc3c(C)n[nH]c3C)nn12)C(=O)Nc1ccccc1F (stereo not given)	2.8%	2.2%
CC(C)(C)c1ccc(C(=O)NCCc2csc(-c3ccc(Cl)cc3)n2)cc1	u	4.6%
CCOc1ccc2cc(C#N)c(SCC(=O)OCc3ccccc3)nc2c1	4.1%	3.7%
COc1ccc(NC(=O)c2ccco2)cc1NC(=O)COc1ccc(C)c(C)c1	-5.9%	7.8%
CCc1ccc(NC(=O)CSc2nc3c([nH]c4ccccc43)c(=O)n2-c2cccc(OC)c2)cc1	3.8%	-3.8%
Cc1c(Cl)cccc1NC(=O)Cn1c(=O)n(Cc2ccco2)c(=O)c2sc3ccccc3c21	-3.8%	1.1%
Cc1ccccc1Cn1c(=O)n(CCc2ccccc2)c(=O)c2ccccc21	0.6%	4.1%
Cc1cccc(N2CCN(C(=O)c3ccc4c(Cl)c5c(nc4c3)CCCC5)CC2)c1C	-2.6%	3.2%
CCOc1ccc(-c2cc3nc(C4CCN(C(=O)OC(C)(C)C)CC4)c(C(=O)Nc4cccc(C(F)(F)F)c4)cn3n2)cc1	-8.3%	8.5%
Cc1ccc(Cl)cc1NC(=O)c1cc(-c2ccc3c(c2)OCCO3)on1	u	5.3%
O=C(Nc1cccc(C(F)(F)F)c1)c1ccc2c(c1)nnn2C1CCCC1	-27%	3.0%
CC1Cc2cc(S(=O)(=O)CCC(=O)Nc3ccc(Cl)cc3F)ccc2N1C(=O)C1CC1 (stereo not given)	-0.4%	0.4%
COc1ccc(Cl)cc1NC(=O)Cn1c(=O)n(Cc2nc(C)no2)c(=O)c2ccccc21	-2.4%	0.2%
O=C(NCc1ccccc1)c1cnc2sc(N3CCCC3)nn2c1=O	u	-0.2%
COC(=O)c1ccc(Cl)cc1NC(=O)N(Cc1ccc(OC)cc1)C1CCN(C(C)=O)CC1	-12%	0.7%
CCc1ccc(-n2nc(CO)c(C(=O)NCCc3ccccc3)n2)cc1	u	-0.6%
Cc1cc(=O)n(Cc2ccccc2)c2c1c(C)nn2-c1ccccc1	-26%	4.0%
COc1cc2c(cc1OC)C(COc1ccc3c(C)cc(=O)oc3c1)N(C(=O)CC(C)C)CC2 (stereo not given)	-6.6%	0.2%
Cn1c(=O)c2c(n3c4ccccc4nc13)NC(=O)CC2c1cccc(Cl)c1 (stereo not given)	4.0%	0.7%
Cc1c(C(=O)OCC2CCCCC2)[nH]c2c1C(=O)CC(c1ccc(Cl)cc1)C2 (stereo not given)	1.5%	1.1%
COC(=O)c1ccc(NC(=O)Nc2nnc(N(C)C3CCCCC3)s2)cc1	-3.0%	-2.4%
O=C(Cn1nc(C(F)(F)F)c2c1CCCC2)Nc1ccc(Cl)cc1	-1.1%	21%
Cc1ccc2cccc(NC(=O)c3cccc4c(Br)cccc34)c2n1	-3.8%	2.8%
O=C(NCCc1csc(-c2cccc(F)c2)n1)C(=O)Nc1cc(F)ccc1F	30%	0.1%
CCOc1ccccc1CN(CCc1ccc2c(c1)OCO2)Cc1cccc(OC)c1OC	-1.7%	u
Cc1ccc2c(c1)-c1onc(C(=O)N3CCN(c4cccc(C)c4C)CC3)c1CO2	-2.4%	2.2%
CCOC(=O)c1ccccc1Nc1cc(C)nc2nc(-c3ccco3)nn12	-2.9%	-0.7%
CCOC(=O)Cc1ccc(NC(=O)N2CC(CC)Oc3ccccc32)cc1 (stereo not given)	1.1%	-0.9%
COc1cc(OC)c(/C=C/c2cc[n+](C)c3ccccc23)c(OC)c1	2.6%	u
COc1ccc(NC(=O)CN2CCN(Cc3ccccc3)S2(=O)=O)c(OC)c1	0.4%	2.5%

# Quoted from the listing:
# CCCSc1nc2sc3c(c2c(=O)n1Cc1ccccc1)CC(C)(CC)OC3 (stereo not given) in ClpP mod reads -2.3%
# CCOC(=O)c1ccccc1Nc1cc(C)nc2nc(-c3ccco3)nn12 in PINK1 modulator reads -0.7%

# Carrying on.
Molecule	ClpP mod	PINK1 modulator
Cc1ccccc1CNC(=O)C1CCN(c2nnc(-n3c(C)ccc3C)s2)CC1	6.6%	-0.1%
COc1ccc(-n2cc(C(=O)NC(C)c3ccccc3)c3ccccc3c2=O)cc1 (stereo not given)	-3.9%	2.4%
COc1ccccc1NC(=O)NCCCN1CCN(c2ccc(F)cc2)CC1	0.4%	1.1%
Cc1ccc2c(=O)cc(CSc3ncn[nH]3)[nH]c2c1C	0.6%	0.0%
CCOC(=O)c1c(C)n(-c2ccccc2)c2ccc(OC(=O)c3cc(OC)cc(OC)c3)cc12	-0.7%	0.7%
CCOC(=O)c1nn2c(C(F)(F)F)cc(-c3ccc(C)cc3)nc2c1Cl	-6.1%	-0.5%
CCOc1ccc2c(c1)c(=O)c(C(=O)c1ccc(CC)cc1)cn2CC(=O)Nc1ccc2c(c1)OCCO2	1.4%	3.2%
CCCCN(CCCNC(=O)c1ccc(Sc2ccc(Cl)cc2)c(NC(C)=O)c1)c1ccccc1	u	-0.4%
CCOc1ccc(C(=O)NCc2nc3cccnc3n2Cc2cccc(OC)c2)cc1	-0.6%	-0.8%
Cc1ccc(Cl)cc1NC(=O)C(C)n1nc(-c2ccccc2)ccc1=O (stereo not given)	-8.1%	0.7%
Cc1cccc(C(=O)N2CCCCC2CCN2CCCCC2)c1 (stereo not given)	-0.4%	1.9%
COCCN1C(=O)c2ccccc2C1c1nnnn1-c1ccc2c(c1)OCCO2 (stereo not given)	1.1%	2.0%
COc1ccc(CNC(=O)C(=O)NCC(c2ccco2)S(=O)(=O)c2cccs2)cc1 (stereo not given)	2.3%	2.8%
COc1cccc(CCNC(=O)c2c(O)nc3cc(C)ccn3c2=O)c1	-4.2%	2.9%
CCOc1ccc(NC(=O)Cn2c(=O)c(CNc3ccc(OC)cc3)cc3ccc(OC)cc32)cc1	-2.5%	8.0%
Cc1ccc(Sc2ccc(N3CCCC(C(=O)Nc4ccc(F)c(Cl)c4)C3)nn2)cc1 (stereo not given)	u	2.0%
CC1CCN(S(=O)(=O)c2nnc(NC(=O)c3ccc(C(C)C)cc3)s2)CC1	-24%	-1.2%
Cc1ccc(-n2nc(C)c3c(C)cc(=O)n(CC(=O)Nc4cc(Cl)ccc4C)c32)cc1	-3.6%	-0.3%
Cc1ccc(-c2nn3c(=O)cc(CN4CCN(C(=O)/C=C/c5ccccc5)CC4)nc3s2)cc1	2.6%	3.2%
Cc1ccc(C)c(NC(=O)C(CC(C)C)N2Cc3ccccc3C2=O)c1 (stereo not given)	0.4%	2.2%
COc1cccc2c1Oc1nc(-c3ccccc3)nc(SCC(=O)Nc3ccccc3)c1C2	0.0%	2.6%
O=S1(=O)CC(N2CCCCC2)CN1Cc1cn(Cc2ccc(C(F)(F)F)cc2)nn1 (stereo not given)	-0.6%	0.2%
COc1cccc(NC(=O)C2CCN(c3cc(C)nc4c(-c5ccc(Cl)cc5)c(C)nn34)CC2)c1	u	1.1%
O=C1O[C@@H](c2ccccc2)C[C@@H](O)[C@H](O)CCc2ccccc21	0.6%	0.5%
O=C(c1ccco1)N1CCN(/C=C2\Nc3ccccc3C(=O)N2c2ccc(F)cc2)CC1	-0.4%	0.7%

# Arranged by SMILES length (rising): part of the list above.
Molecule	ClpP mod	PINK1 modulator
Cc1cccc(C(=O)N2CCCCC2CCN2CCCCC2)c1 (stereo not given)	-0.4%	1.9%
COc1cccc(CCNC(=O)c2c(O)nc3cc(C)ccn3c2=O)c1	-4.2%	2.9%
CC1CCN(S(=O)(=O)c2nnc(NC(=O)c3ccc(C(C)C)cc3)s2)CC1	-24%	-1.2%
O=C(c1ccco1)N1CCN(/C=C2\Nc3ccccc3C(=O)N2c2ccc(F)cc2)CC1	-0.4%	0.7%

# One compound at a time (already shown). Order of values: ClpP mod	PINK1 modulator
# Results for `CCOC(=O)c1nn2c(C(F)(F)F)cc(-c3ccc(C)cc3)nc2c1Cl` : -6.1%	-0.5%
# Results for `Cc1ccc(-c2nn3c(=O)cc(CN4CCN(C(=O)/C=C/c5ccccc5)CC4)nc3s2)cc1` : 2.6%	3.2%

# Additional entries:
Molecule	ClpP mod	PINK1 modulator
CCCN1Cc2cccc(C(=O)Nc3cccc(C(=O)OCC)c3)c2C1=O	0.1%	2.4%
NC(=O)c1c(N)[nH]c(C(=O)c2ccccc2)c1-c1ccccc1Br	-1.2%	2.0%
CCCCOc1ccc(S(=O)(=O)NCc2csc(-c3ccc(OC)cc3)n2)cc1	13µM*	-0.8%
Cc1cccc(NC(=O)C2CCC(CNS(=O)(=O)c3ccc4c(c3)CCCC(=O)N4)CC2)c1C (stereo not given)	-3.9%	2.6%
COc1ccc(CN2C(=O)C(NC(=O)c3ccccc3C)(C(F)(F)F)N=C2c2ccccc2)cc1 (stereo not given)	-0.5%	0.6%
CC1=C(C(=O)Nc2cc(C)ccc2C)C2(CCCCCC2)OC1=O	0.5%	-1.3%
COc1cc(C(=O)n2nc(-c3ccco3)nc2NCc2ccc(Cl)cc2)cc(OC)c1OC	0.6%	2.5%
CC1CCCCN1C(=O)CSc1n[nH]c(-c2ccccc2Cl)n1 (stereo not given)	-0.8%	0.6%
COc1ccc(N2CCN(C(=O)Cn3nc(Cc4cccnc4)c4ccccc4c3=O)CC2)cc1	-1.7%	-0.5%
CCCCOC(=O)c1ccc(NC(=O)c2cc(=O)c3ccccc3o2)cc1	4.1%	-0.3%
Cc1ccc(Cl)cc1NC(=O)Cn1ncc2c(C)n(Cc3ccccc3F)c(C)c2c1=O	-27%	4.5%
COc1ccccc1N1CCN(C2C(=O)c3ccccc3N2C(C)=O)CC1 (stereo not given)	-6.5%	-0.7%
Cc1ccc(-n2nc(C)c3c(C(=O)O)cc(C)nc32)cc1	-1.8%	1.3%
CC(C)C(=O)NCC(c1ccc2c(c1)OCO2)N1CCN(c2ccccc2)CC1 (stereo not given)	-5.1%	-0.6%
CC(C)(C)OC(=O)N1CCC(c2c(C(=O)N3CCN(c4ccccn4)CC3)cnn2-c2cccc(F)c2)CC1	-13%	-0.4%
Cc1cccc(NC(=O)CN(C)S(=O)(=O)c2ccc3c(c2)c(=O)n(C)c(=O)n3C)c1	-3.0%	0.7%
CC(=O)Nc1nonc1-c1nnc(SCC(=O)Nc2ccccc2)n1-c1ccccc1	-0.6%	3.0%
Cc1ccc(-c2nc(CS(=O)CC(=O)N3CCN(c4cccc(Cl)c4)CC3)c(C)o2)cc1 (stereo not given)	-5.5%	3.7%
